# Assay outcomes from PubChem.
# KCNQ2 block: KCNQ2 channel blockers in CHO-K1 cells – cell-based, FluxOR thallium flux, B-score, primary screen (AID 2156); O88943; 20 min; stronger effect = lower value; only compounds with negative scores are shown here; some inactives read as strong as hits; B-score at 10 µM; hit rate 1.1% among 310,000;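 active means fluorescence ratio B-score at most minus 3 library SDs, with starting brightness B-score within 2 library SDs, cut at about -5.5 in these data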
# Target sequence (O88943 whole entry, looked up): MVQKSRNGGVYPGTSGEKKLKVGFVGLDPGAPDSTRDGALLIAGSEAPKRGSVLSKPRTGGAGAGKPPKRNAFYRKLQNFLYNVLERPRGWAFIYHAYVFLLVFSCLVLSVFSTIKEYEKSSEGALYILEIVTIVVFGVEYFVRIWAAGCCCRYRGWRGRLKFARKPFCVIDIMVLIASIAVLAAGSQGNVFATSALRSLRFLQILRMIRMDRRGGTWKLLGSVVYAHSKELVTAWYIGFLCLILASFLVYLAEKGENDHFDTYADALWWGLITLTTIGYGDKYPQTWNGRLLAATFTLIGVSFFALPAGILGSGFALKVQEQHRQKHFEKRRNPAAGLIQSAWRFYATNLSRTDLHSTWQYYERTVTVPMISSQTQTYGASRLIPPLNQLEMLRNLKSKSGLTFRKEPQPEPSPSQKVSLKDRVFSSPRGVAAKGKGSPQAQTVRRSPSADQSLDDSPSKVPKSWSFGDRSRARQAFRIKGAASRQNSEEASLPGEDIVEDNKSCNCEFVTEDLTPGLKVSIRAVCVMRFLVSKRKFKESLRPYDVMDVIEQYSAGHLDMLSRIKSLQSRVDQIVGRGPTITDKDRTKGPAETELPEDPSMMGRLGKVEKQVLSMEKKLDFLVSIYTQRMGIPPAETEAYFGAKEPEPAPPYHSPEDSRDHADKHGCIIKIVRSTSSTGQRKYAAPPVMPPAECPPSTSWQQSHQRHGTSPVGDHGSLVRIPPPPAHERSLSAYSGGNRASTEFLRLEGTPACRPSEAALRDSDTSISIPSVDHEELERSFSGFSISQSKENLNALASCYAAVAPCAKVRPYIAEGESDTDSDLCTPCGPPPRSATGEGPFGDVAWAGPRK
# KCNQ2 block baseline: second read-out of KCNQ2 block, no call of its own (marks repeat the call); B-score; measured here: initial fluorescence intensity artifact check;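 brightness before thallium and not channel activity; 0 = typical well and far values either way flag optical interference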
# * hit, by the source's call; i = inactive. These rows are one share of the data; the hit share may differ from the screen's.
# The first six records, to show the layout:
# Values in the order: KCNQ2 block | KCNQ2 block baseline
> COC(=O)C1=C(O)/C(=C\c2ccc(OCC(=O)Nc3ccccc3OC)cc2)N=C1C
  i | 0.13
> CCOC(=O)C(CC)n1cnc2c(nnn2-c2cccc(OC)c2)c1=O (stereo not given)
  i | 1.39
> COC(=O)C1=C(C)NC2=C(C1c1ccc(O)cc1)S(=O)(=O)c1ccccc12 (stereo not given)
  i | -0.61
> COc1ccc(C(=O)NC(=S)Nc2ccc(Cl)cn2)cc1OC
  i | 1.02
> CCN(CC)S(=O)(=O)c1c(Br)cc(C)cc1Br
  i | -0.56
> O=C(O)CCc1ccc(-c2ccc(F)cc2)n1Cc1ccco1
  i | 1.97

# The list itself, from the start:
# Values in the order: KCNQ2 block | KCNQ2 block baseline
> COC(=O)C1=C(O)/C(=C\c2ccc(OCC(=O)Nc3ccccc3OC)cc2)N=C1C
  i | 0.13
> CCOC(=O)C(CC)n1cnc2c(nnn2-c2cccc(OC)c2)c1=O (stereo not given)
  i | 1.39
> COC(=O)C1=C(C)NC2=C(C1c1ccc(O)cc1)S(=O)(=O)c1ccccc12 (stereo not given)
  i | -0.61
> COc1ccc(C(=O)NC(=S)Nc2ccc(Cl)cn2)cc1OC
  i | 1.02
> CCN(CC)S(=O)(=O)c1c(Br)cc(C)cc1Br
  i | -0.56
> O=C(O)CCc1ccc(-c2ccc(F)cc2)n1Cc1ccco1
  i | 1.97
> CC1=C(C(=O)OC2CCCC2)C(c2coc3ccc(C)cc3c2=O)C2=C(CCCC2=O)N1 (stereo not given)
  i | -0.35
> COc1ccc(NC(=O)c2ccc(CN3CCc4ccccc4C3)cc2)c(OC)c1
  i | 0.66
> CC(C)(C)C1CCC(C(=O)Nc2cccnc2)CC1 (stereo not given)
  i | -0.03
> COc1ccc(OCC(=O)Nc2ccccc2OC(F)F)cc1
  i | -0.39
> CCCOC(=O)c1ccc(-n2nnnc2SCC(=O)N2CCCCC2)cc1
  i | 1.1
> COCCn1c(SCC(=O)c2[nH]c(C)c(C(C)=O)c2C)nc2ccccc21
  i | 0.5
> O=C(Cn1nc(-c2ccccc2)c2ccccc2c1=O)Nc1ccccn1
  i | 0.03
> Cc1cccc2nc(CSC(=N)N)c(Br)n12
  i | 2.35
> CC(C)CCn1c(N2CCC(C(N)=O)CC2)nc2c1c(=O)[nH]c(=O)n2C
  i | -1.26

# Later entries.
# Values in the order: KCNQ2 block | KCNQ2 block baseline
> Cc1cc(C)nc(N/N=C/c2ccccc2OCc2ccc(Br)cc2)n1
  i | -1.6
> O=[N+]([O-])/C(C(Cl)=C(Cl)Cl)=C(/Sc1ccccc1)N1CCCCC1
  i | -0.55
> Cc1ccc2nc3c(cc2c1)c(NS(=O)(=O)c1ccccc1)nn3CC(C)C
  i | -0.32
> Cc1[nH]c(C)c2c(=O)n(-c3ccccc3)ncc12
  i | 1.4
> C=CCN(CC=C)CCOc1ccc2ccccc2c1
  i | -1.14
> O=C1CS/C(=C/C(=O)c2ccccc2)N1
  i | -0.32
> S=C(NCCN(C1CCCCC1)C1CCCC1)Nc1cccc(Cl)c1
  i | 0.13
> COc1cc2c(cc1OC)C(C)N(C(=O)c1cc(Cl)nc(Cl)c1)CC2 (stereo not given)
  i | 1.35
> CC(=O)N1c2ccc(S(=O)(=O)NCc3ccccc3Cl)cc2CC1C (stereo not given)
  i | -0.16
> CCOC(=O)C(C)(C)Sc1nc2c(cnn2-c2ccc(C)cc2)c(=O)[nH]1
  i | 0.31
> Cc1ccc(/C=N/N2CCN(C3c4ccccc4-c4ccccc43)CC2)o1
  i | 3.07
> COc1cc(C(=O)NC2CCCc3ccccc32)cc(OC)c1C (stereo not given)
  i | -1.62
> O=C(O)c1ccc(N2C(=O)CC(N3CCN(c4cccc(C(F)(F)F)c4)CC3)C2=O)cc1 (stereo not given)
  i | -0.12
> COc1ccc(CC(=O)OCC(=O)Nc2ccc3c(c2)OCCO3)cc1OC
  i | 0.81
> Cn1c(-c2ccc(Cl)cc2)cnc1NCc1cc2c(cc1[N+](=O)[O-])OCO2
  i | 1.26

# (continued)
# Values in the order: KCNQ2 block | KCNQ2 block baseline
> C/C(CC(=O)Nc1ccccn1)=N\NC(=O)c1cnccn1
  i | -0.22
> O=C(NCc1ccco1)c1cc2n(n1)C(C(F)(F)F)CC(c1ccc(Cl)c(Cl)c1)N2 (stereo not given)
  i | -2.36
> CCN(CC)C(=O)CSc1nc2ccccc2c(=O)n1-c1cccc(OC)c1
  i | 0.53
> O=C(CNC(=S)N(Cc1ccccc1)Cc1ccccc1F)NCCc1ccccc1
  i | -1.16
> CCc1ccc2c(c1)C(c1ccc(N3CCOCC3)cc1)=NNC(c1ccncc1)=N2
  i | -0.03
> CN1CCc2c(sc3nc(NN)n(Cc4ccccc4)c(=O)c23)C1
  i | 1.26
> O=C(CSc1nc2ccccc2c(=O)n1Cc1ccco1)N1CCN(c2ccccc2)CC1
  i | -0.67
> Cc1ccc(C)c(N2CCN(C(=O)c3nn(C)c4c3CS(=O)(=O)c3ccccc3-4)CC2)c1
  i | -0.63
> Nc1nc2ccc(Cc3ccncc3)cc2s1
  i | 0.01
> CCn1c(=O)c(C(=O)NCCCO)c(O)c2ccccc21
  i | 1.39
> CCCN(Cc1nnc(-c2ccccc2Cl)o1)C(=O)c1cc2ccccc2o1
  i | -1.9
> CCOC(=O)c1cnc2c(OC)cccc2c1N1CCN(c2ccccc2OC)CC1
  -12.1* | 0.9*
> CCOC(=O)N1CCC(NC(=O)c2cc(S(=O)(=O)NCCc3ccccc3)ccc2F)CC1
  i | 0.28
> COc1cc(NC(=O)Cn2nc(C(F)(F)F)c(Br)c2C)cc([N+](=O)[O-])c1
  i | -1.23
> COc1ccc(-c2cc(C(=O)NC3CCCC3)c3ccccc3n2)cc1OC
  i | -0.93

# Later entries:
# Values in the order: KCNQ2 block | KCNQ2 block baseline
> Cc1cc(C(=O)Nc2ccc(N3CCOCC3)c3nonc23)ccc1[N+](=O)[O-]
  i | -0.01
> CC(C)N(C)Cc1nnnn1CC(=O)N(C)Cc1cccc(Cl)c1
  i | -0.01
> CC(=O)c1cccc(NC(=O)N2C3CCC2CC(O)(c2cccnc2)C3)c1 (stereo not given)
  i | 2.51
> COc1ccccc1CN1CC(C(=O)NCCN2CCNC2=O)CCC1=O (stereo not given)
  i | -0.01
> Cc1[nH]c2ccccc2c1C1C(c2ccccc2)=NN=C(C(C)C)N1O (stereo not given)
  i | -0.17
> CC1(C)Cc2c(C#N)c(SCc3ccccc3)nc(N3CCOCC3)c2CO1
  i | 0.01
> CC(C)CCc1c(O)nc(SCC(=O)N2CCCCCC2)[nH]c1=O
  i | -0.08
> Cc1ccc(N=Nc2ccc(N)cc2C)c(S(N)(=O)=O)c1
  i | -0.06
> COc1cc(NC(=O)CN2C(=O)NC(c3ccccc3)(c3ccccc3)C2=O)c(C)cc1[N+](=O)[O-]
  i | 0.44
> CCOC(=O)c1c(NC(=O)C2CCCO2)sc(C(N)=O)c1C (stereo not given)
  i | -0.6
> CC(C)(C)c1cc(NS(=O)(=O)c2ccc3c(c2)OCCO3)on1
  i | -0.32
> C[C@H](NC(=O)c1ccccc1)C(=O)N1CCC2(CC1)NCCc1[nH]cnc12
  i | -0.67
> CCOC(=O)CNc1nc(Oc2ccc(=O)n(C)n2)nc(N(CC)CC)n1
  i | -0.2
> CCOc1cc(C(=O)Nc2ccc(S(=O)(=O)N3CCOCC3)cc2)cc(OCC)c1OCC
  i | -0.73
> CCC(CC)NC(=O)c1oc2ccccc2c1COc1ccccc1
  i | -0.01

# Next compounds follow:
# Values in the order: KCNQ2 block | KCNQ2 block baseline
> CN(C)S(=O)(=O)c1cccc(NC(=O)c2ccc(COc3ccccc3)cc2)c1
  -5.84* | -0.32*
> O=C(CCN1CCC(c2ccccc2)C1)c1cccs1 (stereo not given)
  i | 3.3
> Cc1ccc(S(=O)(=O)N/N=C\c2cn(-c3ccccc3)nc2-c2ccccc2)cc1
  i | -0.04
> CCCc1cc(Nc2c(C)n(C)n(-c3ccccc3)c2=O)n2c(nc3ccccc32)c1C#N
  i | -1.94
> COc1ccc(NC(=O)N(Cc2ccc(C)cc2)Cc2cccnc2)c(OC)c1
  i | 0.15
> COc1ccc(C)cc1NC(=O)CN1C(=O)COc2ccc(S(=O)(=O)N3CCC(C)CC3)cc21
  i | -0.17
> Cc1ccc(C2C(=O)N(C3CCCC3)CC(=O)N2CC2COc3ccccc3O2)cc1 (stereo not given)
  i | 2.03
> CCN(CC)c1nc(C(F)(F)F)nc2c1nnn2Cc1ccccc1
  i | 1.11
> CC(=O)N1CCCc2cc(S(=O)(=O)N3CCCC(C(=O)Nc4ccccc4C)C3)ccc21 (stereo not given)
  i | 0.23
> COc1ccccc1C(=O)NCCCNC(=O)c1cnccn1
  i | -1.95
> COc1ccc(N2C(=O)CC(NCc3ccncc3)C2=O)cc1 (stereo not given)
  i | -1.44
> COc1cccc(-c2nn3c(-c4ccco4)nnc3s2)c1
  i | 2.24
> Cc1onc(-c2c(F)cccc2Cl)c1C(=O)N1CCOC12CCCCC2
  i | -0.79
> O=[N+]([O-])c1cc(C(F)(F)F)cc([N+](=O)[O-])c1NCCCN1CCOCC1
  i | 0.12
> O=C(Nc1cccc([N+](=O)[O-])c1)N1CCCc2ccccc21
  i | -1.12

# The listing continues:
# Values in the order: KCNQ2 block | KCNQ2 block baseline
> O=C(NCC1CCCN1S(=O)(=O)c1cccs1)C(=O)Nc1ccccc1Cl (stereo not given)
  i | -1.31
> O=C(CSc1cn(CC(=O)N2CCCCCC2)c2ccccc12)NCC1CCCO1 (stereo not given)
  i | -0.71
> O=C(COc1ccc(Br)cc1)NCCN1CCCC1
  i | 0.44
> CN(C)/C=C/C(=O)c1ccc(Br)cc1
  i | -0.03
> O=c1[nH]c2ccc(NCc3ccc(F)cc3)cc2[nH]1
  i | 0.42
> O=C(Nc1cccc(S(=O)(=O)NCc2ccco2)c1)c1cc(-c2ccc(F)cc2)nc2ccccc12
  i | -1.35
> COc1ccc(Nc2nc(N)nc(CSC(=S)N3CCN(c4ccccc4)CC3)n2)cc1
  i | 1.37
> COc1cccc(NC(=O)c2ccc(S(=O)(=O)N3CCCCC3)cc2)c1
  i | -1.31
> Cc1cc(C(=O)OCCO)c(C#N)c(N)n1
  i | 1.78
> Cc1cccc(Nc2nnc(SCC(=O)NC3CCCc4ccccc43)s2)c1C (stereo not given)
  -5.92* | 0.2*
> Cc1ccccc1CN(c1ccc(C(=O)Nc2cccnc2)cc1)S(C)(=O)=O
  i | 0.56
> Cc1c(CN(C)C)c2c(n1Cc1ccccc1)C(=O)c1ccccc1-2
  i | -0.43
> CC(Sc1nnc2ccccn12)C(=O)Nc1ccc2c(c1)OCCO2 (stereo not given)
  i | 0.38
> Cc1cccc(-n2ncc(C#N)c2N)c1
  i | -1.63
> O=C(Nc1ccccc1F)N(Cc1ccc(F)cc1)Cc1nc2ccccc2c(=O)[nH]1
  i | 1.46

# (next part)
# Values in the order: KCNQ2 block | KCNQ2 block baseline
> O=S(=O)(NC1CC1)c1ccc(S(=O)(=O)N2CCCc3ccccc32)cc1
  i | 0.72
> CS(=O)(=O)Nc1ccc(C(=O)NC2CC3CCC2C3)cc1 (stereo not given)
  i | 2.15
> CCC(=O)Nc1ccc2c(c1)nc(CCN1CCN(c3ccccn3)CC1)n2C
  i | 0.03
> Cc1nc(C)c2c(=O)cc(-c3ccccc3)[nH]c2n1
  i | 0.19
> Cc1cc(C)nc(SCC(=O)N/N=C/c2cccs2)n1
  i | -0.17
> COc1cccc(-c2csc(NC(=O)Oc3ccccc3)n2)c1
  i | 0.54
> CCCC(C)C(=O)Nc1ccccc1C(=O)OCC (stereo not given)
  i | -0.07
> CCCn1c(C2CC(=O)N(c3ccc(C)cc3)C2)nc2ccccc21 (stereo not given)
  i | -0.42
> Nc1ncnc2c1ncn2CCc1ccccc1
  i | 0.76
> CC(C)(C)NC(=O)C1Cc2ccccc2CN1 (stereo not given)
  i | -1.65
> COc1ccc(/C=N/NC(=O)CCn2nc(C)cc2C)cc1
  i | -0.14
> Fc1ccc(C(CCCn2nnc(-c3cccnc3)n2)c2ccc(F)cc2)cc1
  i | -0.69
> O=C(CNC(=O)c1ccc(Br)cc1)OCc1cc([N+](=O)[O-])cc2c1OCOC2
  i | 0.97
> CN(c1ccc(C(=O)NCCSCc2ccc(Cl)cc2)cc1)S(=O)(=O)c1ccccc1
  i | 0.02
> Cc1ccc(S(=O)(=O)Nc2ccc(Br)cc2C(NCC(=O)O)c2ccccc2)cc1 (stereo not given)
  i | 0.82

# Remaining list, next part.
# Values in the order: KCNQ2 block | KCNQ2 block baseline
> C[C@]12CCC(=O)C=C1CC[C@@H]1[C@@H]2[C@@H](O)C[C@]2(C=O)[C@@H](C(=O)CO)CC[C@@H]12
  i | 0.91
> COCCNC(=O)CN(C(=O)CCC(=O)Nc1ccccn1)c1ccc(C)cc1
  i | 1.03
> CCCn1ncc(CN2CCC(CO)(Cc3ccc(OC)cc3)CC2)c1C
  i | -0.69
> Cc1cc(C)nc(-n2nc(C)cc2NC(=O)CNC(C)c2ccccc2)n1 (stereo not given)
  i | 1.58
> Cc1ccccc1OCCC(=O)N(Cc1ccccc1)c1c(N)n(Cc2ccccc2)c(=O)[nH]c1=O
  i | 2.06
> CN(Cc1c(C(=O)N/N=C/c2ccccc2F)nnn1-c1nonc1N)c1ccccc1
  i | -0.01
> CCC(CC)c1nnc(NC(=O)c2cccnc2SC)s1
  i | 0.42
> COc1ccc(OC)c(C(=O)CN2CCN(S(=O)(=O)c3ccc(Br)cc3)CC2)c1
  i | -0.85
> O=C(Cn1cnc2cc([N+](=O)[O-])ccc2c1=O)Nc1ccccc1Cl
  i | 0.7
> COc1cccc(C(=O)Nc2cc(=O)n(C)c(=O)n2C)c1
  i | 1.81
> CCCCn1c(N)c(N(CCC(C)C)C(=O)C2CC(=O)N(Cc3ccc(C)cc3)C2)c(=O)[nH]c1=O (stereo not given)
  i | -0.48
> C=C1CCN([C@@H](CC(C)C)C(=O)Nc2nc3ccc(Cl)cc3s2)S(=O)(=O)c2ccccc21
  i | -2.53
> CC1=C(C(=O)OCc2ccccc2)C(/C=C/c2ccccc2)N2C(=O)CCSC2=N1 (stereo not given)
  i | -0.41
> O=C1C(=O)N(Cc2cccnc2)C(c2ccccn2)/C1=C(/O)c1ccc(Br)cc1 (stereo not given)
  i | 0.09
